# Cruzain noTriton: cruzain (T. cruzi) inhibition without detergent; P25779; purified cruzain, Z-FR-AMC fluorescence, no detergent; Potency, µM, for the others: max response, negative = inhibition, usual class: inhibitors; actives 2.3% (n = 200,000);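 further: plate controls were enzyme without inhibitor for no effect and buffer without enzyme for full effect; nearly all actives have a fitted effect of over 40% in size; top concentration of the series not given in the record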
# Target sequence (P25779 123-467 limits assumed): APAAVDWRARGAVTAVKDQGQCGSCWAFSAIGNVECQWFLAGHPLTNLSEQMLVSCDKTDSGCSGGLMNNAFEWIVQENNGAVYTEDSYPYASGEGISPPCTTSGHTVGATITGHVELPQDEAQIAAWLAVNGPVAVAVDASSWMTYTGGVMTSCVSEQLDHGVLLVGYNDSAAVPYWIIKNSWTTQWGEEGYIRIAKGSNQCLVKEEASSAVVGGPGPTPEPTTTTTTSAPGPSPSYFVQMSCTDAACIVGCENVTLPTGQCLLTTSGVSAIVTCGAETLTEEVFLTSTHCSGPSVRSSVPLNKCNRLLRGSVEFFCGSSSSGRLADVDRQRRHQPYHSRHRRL
#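 Purified cruzain at 1.5 nM, pre-incubated 15 min with compound at room temperature in 100 mM sodium acetate pH 5.5, 5 mM DTT, 0.00005% Triton X-100. Reaction started with 2 uM Z-FR-AMC; AMC fluorescence increase over 60 s gives rate.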
# RE007 growth inh: less growth of the S. pombe RE007 Vpr strain. S. pombe RE007 Vpr strain, BacTiter-Glo ATP luminescence, 24 h; control for the full effect not named in the record. Potency, µM (highest dose often 92.2 µM), for inactives: at the top dose activity change, negative = less growth. actives 0.21% (n = 360,000). AID 651644; active = well fitted falling curve with a large enough effect; inconclusive = small, poorly fitted or top-dose-only effect; inactive = no such curve, though single readings can be large or run the other way;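 further: on the % scale 0 is the no-effect control and ±100 the full control effect; nearly all actives have a fitted effect of over 50% in size; the assay follows cell death caused by Vpr and the record does not say whether a fall means rescue or toxicity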
#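 Fission yeast RE007 carrying one integrated HIV-1 vpr copy, seeded at OD 0.01 in PMG+AL medium with 23 nL pinned compound. Grown 24 h at 30 degrees; viability read by BacTiter-Glo luminescence after 5 min.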
# 2A StopGo: lowers the luciferase signal of an FMDV 2A StopGo reporter; Potency, µM (doses to about 57.9 µM), without a hit: at the highest dose signal change, negative = less light; AID 1159524; actives 1.2% (n = 410,000); human cells with a luciferase reporter of 2A StopGo recoding; control for the full effect not named in the record; active = well fitted falling curve with a large enough effect; inconclusive = small, poorly fitted or top-dose-only effect; inactive = no such curve, though single readings can be large or run the other way; tested in HEK293T cells; further: on the % scale 0 is the no-effect control and ±100 the full control effect; nearly all actives have a fitted effect of over 45% in size; luciferase light after 4 h
# Marburg entry inh: inhibitors of Marburg virus binding or cell entry; Marburg virus pseudotyped entry inhibition, cell reporter; control for the full effect not named in the record; about a third of the inactives were read at about 46 µM; Potency, µM (doses to about 37.8 µM), for inactives: at the top dose activity change, negative = inhibition, actives largely listed as inhibitors; actives 1.8% (n = 300,000); AID 540276; active = well fitted inhibition curve with a large enough effect; inconclusive = small, poorly fitted or top-dose-only effect, or effect the other way; inactive = flat fitted curve, though single readings scatter; tested in HEK293 cells; about a fifth of its hits are not listed in these tables; further: on the % scale 0 is the no-effect control and ±100 the full control effect; luciferase read-out
# LASV entry inh: blocks Lassa virus binding to or entry into cells. Lassa virus pseudotype entry inhibition, cell reporter; control for the full effect not named in the record. Potency, µM (titrated, usually from 37.9 µM), inactives show at the highest dose activity change, negative = inhibition, most hits filed as inhibitors. actives 1.2% (n = 300,000); active means well fitted inhibition curve with a large enough effect; inconclusive means small, poorly fitted or top-dose-only effect, or effect the other way; inactive means flat fitted curve, though single readings scatter; tested in HEK293 cells; further: on the % scale 0 is the no-effect control and ±100 the full control effect; nearly all actives have a fitted effect of over 50% in size; luciferase read-out
# SARS PLpro yeast: inhibitors of SARS-CoV papain-like protease in yeast; S. cerevisiae expressing SARS-CoV PLpro, growth rescue; control for the full effect not named in the record; Potency, µM (titrated, usually from 32.9 µM), without a hit: top-dose activity, positive = growth rescue; actives 0.19% (n = 330,000); active means well fitted rising curve with a large enough effect; inconclusive means small, poorly fitted or top-dose-only effect; inactive means no such curve, though single readings can be large or run the other way; further: 0% is about no effect; nearly all actives have a fitted effect of over 55% in size; growth read by luminescence after 48 h
# NS1 inh: blocks influenza NS1 protein function; S. cerevisiae slowed by influenza A NS1, growth recovery by OD600; Potency, µM (highest dose often 46.1 µM), without a hit: at the top dose activity, positive = more growth; actives 0.4% (n = 270,000); AID 2326; active means well fitted rising curve with a large enough effect; inconclusive means small, poorly fitted or top-dose-only effect; inactive means no such curve, though single readings can be large or run the other way; further: nearly all actives have a fitted effect of over 50% in size
#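 OD600 was taken as the measure of yeast growth restored by compound in an NS1-expressing S. cerevisiae strain. Cells had been washed out of glucose medium and diluted 1:100 into galactose -URA medium, pH 6.0.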
# Cruzain Triton: inhibitors of Trypanosoma cruzi cruzain with detergent. P25779. actives 0.43% (n = 200,000). purified cruzain, Z-FR-AMC fluorescence, 0.01% Triton. Potency, µM, for the others: max response, negative = inhibition, hits mostly inhibitors;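 further: plate controls were neutral wells for no effect and buffer without enzyme for full effect; nearly all actives have a fitted effect of over 40% in size; top concentration of the series not given in the record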
#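 Detergent-containing arm of a paired screen for aggregation-based inhibition: 0.01% Triton X-100 present. Cruzain at 1.5 nM cleaved 2 uM Z-FR-AMC at pH 5.5 with 5 mM DTT; AMC fluorescence gain over 60 s measured activity.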
# Starred values were filed as active, the others as inactive; ? = inconclusive; . = no result given; & = joins results of further samples; [ ] = remark or other dose. Unless noted, the call rests on the fitted dose curve; in most records, active means well fitted curve in the direction sought with a large enough effect; inconclusive means small, poorly fitted or top-dose-only effect, or another doubt; inactive means no such curve, though single readings can be large; an effect the other way counts as inactive or inconclusive. Potency means the concentration at half of the fitted maximal effect.
SMILES,Cruzain noTriton,RE007 growth inh,2A StopGo,Marburg entry inh,LASV entry inh,SARS PLpro yeast,NS1 inh,Cruzain Triton
Cc1ccc(S(=O)(=O)Nc2nc3ccccc3nc2NCc2ccco2)cc1,?,-2%,.,?,-2%,-12%,-41%,-8.8%
CCCOc1ccc(N2C(=O)CC(N3CCC(C(=O)OCC)CC3)C2=O)cc1 (stereo not given),?,5.6µM*,0%,18%,1%,-50%,-65%,5.3%
O=C(CCNS(=O)(=O)c1ccc(F)c(Cl)c1)NCc1ccccc1F,.,6%,9%,18%,4%,4%,.,.
O=C1NC(CCc2ccccc2)C(=O)N1Cc1ccccc1Cl (stereo not given),5%,13%,-18%,8%,18%,3%,1%,-5.9%
CCN(CC)CCN(C(=O)c1ccc2c(c1)CCCC2)c1nc2ccc(C)cc2s1,.,-12%,?,10µM*,?,-3%,-40%,.
Cn1c(N)c(C(=O)Nc2ccc(-c3ccccc3)cc2)sc1=S,.,-15%,?,.,.,0%,2%,.
CC1CCN(c2ccc(-c3cccc(NC(=O)C(F)(F)F)c3)nn2)CC1,.,-3%,16µM*,?,2.2µM*,0%,-11%,.
CN(CC(=O)Nc1ccc(F)c(F)c1F)C(=O)CCc1nc2sc3c(c2c(=O)[nH]1)CCCC3,.,6%,-15%,-1%[46.1 µM],-11%,1%,.,.
Cc1ccccc1-c1nc(-c2cccnc2)no1,1%,-25%,64%[activator],10%,?,6%,-52%,1.4%
COc1ccc(OCc2nc(N)nc(Nc3cccc(C)c3C)n2)cc1,?,12%,-17%,?,14%,-2%,-6%,2.0%
O=C1CC(c2ccccc2)n2nc(NC(=O)c3cccnc3)nc2N1 (stereo not given),3%,.,.,0%,.,6%,4%,3.6%
Cc1cc(-c2cc(-c3ccc(Cl)cc3)on2)nc(NCC2CC2)n1,.,20%,3%,.,.,-2%,-6%,.
CC(Sc1nnnn1C)C(=O)NC1CCCC1 (stereo not given),.,2%,-7%,?,?,0%,.,.
C#CCNC(=O)/C=C/c1ccc(C)cc1,1%,-14%,55%[activator],?,-1%,9%,7%,2.6%
COc1cccc(N/C(SCc2ccccc2C)=C(/C#N)C(=O)NCc2cccs2)c1,?,20%,-5%,?,?,-3%,-2%,-3.6%
Cc1ccc(C(=O)N2CCN(C(=O)c3ccc(C)cc3)C2)cc1,.,12%,-18%,-3%[46.1 µM],3%[46.1 µM],-1%,.,.
C=C[C@@](C)(O)CC[C@@H]1[C@@]2(C)CCCC(C)(C)[C@@H]2CC[C@@]1(C)O,?,-5%,?,.,.,1%,0%,-1.1%
CCOC(=O)Cn1c(C)c(Br)c(COC)c(C#N)c1=O,.,-3%,38%[activator],-2%[46.1 µM],9%[46.1 µM],-1%,-3%,.
Cc1ccc(Cl)cc1NC(=O)COC(=O)CC(C)(C)C,.,-6%,-22%,?,.,1%,.,.
CCCn1c(SC(C)C(=O)N2CCOCC2)nc2ccc(Br)cc2c1=O (stereo not given),.,6%,-24%,-9%,5%,-2%,.,.
O=C(Cn1cc([N+](=O)[O-])cn1)N1CCCc2ccccc21,.,18%,0%,-2%[46.1 µM],2%,0%,.,.
COc1cc(-c2nc(-c3ccc(NC(=O)c4ccc5c(c4)OCO5)cc3)no2)cc(OC)c1OC,?,-12%,-24%,?,-6%,-1%,-12%,-3.2%
CC1=CS/C(=C(/C#N)C(=O)NCc2ccco2)N1c1ccccc1,-12%,10%,-27%,.,.,4%,6%,-3.4%
Cc1cccc(N2CCN(C(=O)c3cn4ccccc4n3)CC2C)c1 (stereo not given),.,1%,?,?,-5%[46.1 µM],-1%,1%,.
COc1ccc(CNC(=O)CCC(=O)Nc2ccc(Cl)cc2)cc1,.,8%,19%,.,.,-2%,10%,.
COc1ccc(OC)c(C(=O)NC(CC(N)=O)c2ccc(NCCN3CCCC3)c([N+](=O)[O-])c2)c1 (stereo not given),.,-3%,-12%,.,.,3%,2%,.
Cc1cccc[n+]1C1C(c2ccccc2)C(C#N)=C(C(=C=[N-])C#N)NC1(O)C1CC1 (stereo not given),-18%,-24%,-4%,-14%,-4%,1%,?,-1.4%
CCCCc1nc2ccccc2c(=O)n1-c1cccc(OC)c1,5%,.,8%,.,14%[46.1 µM],.,.,-5.7%
O=C(c1ccco1)N1CCN(Cc2ccc(F)cc2Cl)CC1,.,-4%,41%[activator],25%,19%,0%,-12%,.
N#Cc1c(NC(=O)c2ccc(Br)o2)n(-c2ccccc2)c2nc3ccccc3nc12,.,-9%,-19%,-6%,.,-1%,10%&4%,.
Cc1nnc(N2CCCC(C(=O)Nc3cccc(C(F)(F)F)c3)C2)c2nn(-c3ccccc3)c(C)c12 (stereo not given),8%,.,-23%,.,-21%[46.1 µM],.,.,-6.6%
COc1ccc(CSc2nnc(CNS(C)(=O)=O)o2)cc1,1%,4%,.,14%,-16%,-2%,-2%,3.6%
Cc1noc(C)c1COc1cccc(C(=O)Nc2ccc(OCc3ccccc3)cc2)c1,1%,21%,-10%,-1%[46.1 µM],?,0%,-3%,1.8%
CCCOc1ccc(N2C(=O)CC(N(CCc3ccc(S(N)(=O)=O)cc3)C(C)=O)C2=O)cc1 (stereo not given),9%,-16%,27%,?,-3%,2%,-6%,2.4%
CCOC(=O)c1cnc(N)nc1C(F)(F)F,.,4%,14%,-30%[46.1 µM],?,-2%,0%,.
CCN(CC)CCNC(=O)C(=O)Nc1cc2c3c(c1)CCN3C(=O)CC2,.,10%,-4%,.,.,7%,2%,.
Cc1cccc(NC(=O)CSc2nnc(-c3ccncc3)n2C)c1,0%,7%,16%,1%,0%,-3%,-2%,-3.2%
CCN1CCN(S(=O)(=O)CC2(C)C3CCC2(C)C(=O)C3Br)CC1 (stereo not given),.,12%,-9%,-2%[46.1 µM],2%,4%,.,.
NNC(=O)COc1cccc2cccnc12,1%,4%,-3%,17%,-10%,25%,-2%,-1.7%
CCCCC1=NN(C(=O)c2ccco2)C(O)(C(F)(F)F)C1 (stereo not given),.,22%,-4%,?,6%[46.1 µM],0%,-2%,.
O=C(/C=C/c1ccc2c(c1)OCO2)NCCSCc1ccc(Cl)cc1Cl,14%,16%,0%,?,?,-3%,2%,-4.3%
CCc1ccc(NC(=O)C2CCN(S(=O)(=O)c3ccc4c(c3)CC(C)N4C(C)=O)CC2)cc1 (stereo not given),.,3%,16µM*,.,.,-5%,-35%,.
COc1ccc(C)cc1NS(=O)(=O)c1ccc2c(c1)N(C(C)=O)CCO2,.,2%,21%,-16%[46.1 µM],12%[46.1 µM],5%,0%,.
O=C(Cc1cccs1)Nc1ccc(-c2nnc(-c3ccco3)o2)cc1,.,17%,48%[activator],-17%,17%,0%,.,.
O=C(COC(=O)c1ccco1)Nc1ccc(N2CCOCC2)cc1,.,-5%,-4%,10%[46.1 µM],4%,0%,.,.
CC1(C)Cc2c(cnn2-c2ccccc2)C(NC(=O)CCCN2CCCC2=O)C1 (stereo not given),.,-1%,-4%,-8%,-5%,-2%,3%,.
COc1ccc(CCNC(=O)C(=O)NCc2ccccc2)cc1OC,3%,14%,-9%,-24%,4%,-2%,-8%,1.5%
Cc1ccc(NCCNc2ccc(C)cc2)cc1,-17%,8%,22%,0%,1%,0%,-19%,-1.2%
CCN(CC(=O)Nc1ccc(OC)cc1)C(=O)c1ccc(NS(=O)(=O)c2ccc(C(C)=O)cc2)cc1,.,-9%,-10%,20%[46.1 µM],-7%,4%,.,.
CCOC(=O)c1ccc(S(=O)(=O)N2CCN(CC(O)COc3ccc(C#N)cc3)CC2)cc1 (stereo not given),.,3%,-25%,?,?,1%,2%,.
COc1ccccc1NC(=O)CCSc1nnnn1C,-3%,5%,-1%,?,-23%,4%,7%,2.7%
Cc1nn(Cc2c(F)c(F)c(F)c(F)c2F)c(C)c1NC(=O)c1nn(C)cc1[N+](=O)[O-],-7%,-7%,-21%,2%,-24%[14.3 µM],6%,9%,3.2%
Cc1cc(NC(=O)CC23CC4CC(C2)CC(CC(=O)Nc2cc(C)on2)(C4)C3)no1,11%,2%,-14%,0%[46.1 µM],-3%,-9%,-5%,-0.6%
O=C(CCn1c(=O)oc2ccccc21)N1CCN(c2ccccc2Cl)CC1,-5%,9%,6%,?,?,9%,-15%,-3.8%
COc1ccccc1CNc1nc(C)c(C(C)=O)s1,.,-18%,7%,20%[46.1 µM],-14%[46.1 µM],1%,13%,.
CCOC(=O)C(C(=O)OCC)C(C)(C)/C(C)=N\Nc1ccc([N+](=O)[O-])cc1[N+](=O)[O-],12%,-3%,?,?,?,-1%,11%,-4.9%
O=C(NCCCNC(=O)NC1CCCCC1)NC1CCCCC1,.,11%,-16%,0%,4%,.,4%,.
Cc1cc(N2CCN(c3ccc(F)cc3)CC2)nc2cc(O)ccc12,?,-13%,-13%,.,.,-1%,-12%,-14%
CCOc1ccc(S(=O)(=O)N(CC(=O)O)c2ccccc2)cc1,8%,10%,-16%,?,?,-1%,9%,3.8%
O=C(NC1CCCCC1)C1CCCN(S(=O)(=O)c2cccc3cccnc23)C1 (stereo not given),.,-7%,-14%,.,.,-1%,3%,.

# Next section.
SMILES,Cruzain noTriton,RE007 growth inh,2A StopGo,Marburg entry inh,LASV entry inh,SARS PLpro yeast,NS1 inh,Cruzain Triton
O=C1/C(=C/c2ccccc2Cl)N2CCC1CC2,.,-24%,-6%,.,.,-1%,8%,.
CC(=O)NC1CC2CCCC(C1)N2CC(=O)Nc1ccccc1 (stereo not given),-3%,2%,21%,16%,-2%,0%,-1%,1.6%
CCCn1c(C2CCCN2c2nc(-c3ccc(C)cc3)cs2)nc2ccccc21 (stereo not given),.,11%,0%,.,.,-3%,29%,.
N#Cc1ccc(N2CCCC2C(=O)O)c([N+](=O)[O-])c1 (stereo not given),-8%,25%,6%,2%,1%,3%,18%,1.4%
